Bioassay records (PubChem)
HPGD block: HPGD (human) dehydrogenase inhibition; P15428; purified HPGD, NADH fluorescence kinetic, PGE2 substrate; Potency, µM, for the others: at the top dose activity change, negative = inhibition, hits mostly inhibitors; 150,000 compounds, 4.3% hits; active = well fitted inhibition curve with a large enough effect (not every such curve was filed as active); inconclusive = small, poorly fitted or top-dose-only effect, or another doubt; inactive = no such curve, though single readings can be large or run the other way;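 also: top concentration of the series not given in the record; plate controls included wells without enzyme; inactives centre near -10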
Target sequence (P15428 whole entry, looked up): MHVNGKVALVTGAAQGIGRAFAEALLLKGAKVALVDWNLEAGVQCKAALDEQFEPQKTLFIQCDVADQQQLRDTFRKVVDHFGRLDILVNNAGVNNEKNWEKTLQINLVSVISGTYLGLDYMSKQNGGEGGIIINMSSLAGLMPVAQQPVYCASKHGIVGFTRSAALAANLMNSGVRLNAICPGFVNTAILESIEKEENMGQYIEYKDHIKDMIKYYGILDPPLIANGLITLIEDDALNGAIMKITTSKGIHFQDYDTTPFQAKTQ
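20 nM HPGD preincubated 15 min at room temperature with compound in 50 mM Tris-HCl pH 8, 0.01% Tween 20. Started with 1 mM NAD+ and 30 uM prostaglandin E2; NADH fluorescence (360/450 nm) read 5 times over 30-s intervals, last minus first.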
An asterisk follows results filed as active; u = inconclusive; & = joins results of further samples. % is scaled to controls: 0 for no effect and ±100 for the full control effect; potency is read from the fitted curve at half-maximal effect.

mol	HPGD block
COc1cccc(OC)c1C(=O)N1CCOCC1	-7.3%
COc1ccc(N2CCN(c3ncnc4c3nnn4Cc3ccccc3Cl)CC2)cc1	u
COc1cccc(-c2nnc(SCC(=O)N3CCOCC3)o2)c1	-26.2%
CC1(C(=O)O)C=CC2(CCCCC2)N1C(=O)c1ccccc1 (stereo not drawn)	2.0%
C=CCNC(=O)C1CC(=O)N(c2ccc(OCC(=O)NCc3ccccc3)cc2)C1 (stereo not drawn)	-19.2%
CCOC(=O)c1c(C)c2c(n1C)CCC/C2=N\O	-6.9%
Cn1c(=O)n(C)c2cc(S(=O)(=O)N3CCOCC3)ccc21	-7.4%
CCN1CCCC1CN(Cc1cc2cc(C)ccc2[nH]c1=O)C(=O)Nc1ccccc1OC (stereo not drawn)	u
C=C(C)C(=O)OC[C@@H]1CCC[N@+]2(C)CCCCC12 (stereo partly drawn)	-8.3%
Cc1cc(C)c(C(=O)Nc2ccc(Br)c(C(F)(F)F)c2)c(C)c1	-8.3%

A stretch from further up, for reference:
mol	HPGD block
COc1cccc(OC)c1C(=O)N1CCOCC1	-7.3%
COc1ccc(N2CCN(c3ncnc4c3nnn4Cc3ccccc3Cl)CC2)cc1	u
COc1cccc(-c2nnc(SCC(=O)N3CCOCC3)o2)c1	-26.2%

Reprinted at random: five entries already listed
mol	HPGD block
COc1cccc(-c2nnc(SCC(=O)N3CCOCC3)o2)c1	-26.2%
Cn1c(=O)n(C)c2cc(S(=O)(=O)N3CCOCC3)ccc21	-7.4%
C=CCNC(=O)C1CC(=O)N(c2ccc(OCC(=O)NCc3ccccc3)cc2)C1 (stereo not drawn)	-19.2%
COc1cccc(OC)c1C(=O)N1CCOCC1	-7.3%
CCN1CCCC1CN(Cc1cc2cc(C)ccc2[nH]c1=O)C(=O)Nc1ccccc1OC (stereo not drawn)	u

The listing continues.
mol	HPGD block
N#CC(C(=O)OC1CCCCC1)c1nc2ccccc2nc1N1CCOCC1 (stereo not drawn)	-15.4%
CN(C)C(=O)c1ccc(-c2nc(N(C)C)c3ccccc3n2)cc1	0.316µM*
O=C(c1ccco1)N1CCN(C(=O)C2CC(c3ccc(Cl)cc3)=NO2)CC1 (stereo not drawn)	-8.0%
c1ccc(Cn2c(Nn3cnnc3)nc3ccccc32)cc1	-10.8%
CCCCc1ccc(-c2ccc(Br)cc2O)nc1	-4.1%
COCCNC(=O)CSC1=N/C(=C/c2ccc(Cl)c(Cl)c2)C(=O)N1c1ccccc1F	u
C#CCOCCCC(=O)O	-13.5%
COc1ccc(CCCC(=O)Nc2ccccc2F)cc1	-6.2%
O=C(Cn1nnc2ccccc21)c1cccc([N+](=O)[O-])c1	-16.7%
O=C(C1CCC(C(=O)N2CCCCC2)CC1)N1CCCCC1 (stereo not drawn)	u
N#Cc1nc(-c2ccc(F)cc2)oc1NCc1cccc2c1OCO2	u
O=C(Nc1ccccc1)c1cccc(N2CCCC2=O)c1	-3.8%
CCCN(CC1COc2ccccc2O1)C(=S)Nc1ccc(C)cc1 (stereo not drawn)	-7.3%
CC(C)(C)c1ccc(-c2nnc3sc(-c4ccncc4)nn23)cc1	u
CC(=O)OCC(=O)[C@H]1CC[C@H]2[C@@H]3CCC4=CC(=O)CC[C@]4(C)[C@H]3CC[C@]12C	-4.7%&-3.9%
O=C(Nc1ccccc1C(F)(F)F)c1cc(S(=O)(=O)N2CCOCC2)ccc1F	2.0%
C=CCN(CC=C)CC(O)CN(c1cc([N+](=O)[O-])ccc1OC)S(=O)(=O)c1ccccc1 (stereo not drawn)	-14.4%
CC(=O)N1CCc2cc(Br)cc(S(=O)(=O)NCCN3CCCCC3C)c21 (stereo not drawn)	1.0%
Cc1noc(C)c1S(=O)(=O)N1CCCC(C(=O)Nc2cccnc2)C1 (stereo not drawn)	-4.9%
COc1ccc(-c2noc(CN(C(=O)c3ccc(OC(C)=O)cc3)C(C)C)n2)cc1OC	-4.1%
Cc1cccc(NC(=O)C2CCN(S(=O)(=O)c3cccc4cccnc34)CC2)c1	-11.4%
O=C(CN(CC1CCCO1)C(=O)CCC(=O)Nc1ccccn1)NCc1ccccc1 (stereo not drawn)	-15.8%
Cc1ccccc1NC(=S)NC(NC(=O)c1ccco1)C(Cl)(Cl)Cl (stereo not drawn)	-15.8%
O=C(Nc1cc([N+](=O)[O-])ccc1F)c1cccs1	-1.6%
CC(C)CN(C(=O)CN1CCN(S(=O)(=O)c2ccc3ccccc3c2)CC1)c1c(N)n(CC(C)C)c(=O)[nH]c1=O	-9.3%
N[C@@H](C(=O)O)c1ccc(C(=O)O)c(O)c1	u
COc1ccc(Cl)cc1N(C)C(=O)CCc1nc(-c2ccc(C)cc2)no1	-22.1%
O=C(COc1cccnc1[N+](=O)[O-])NC1CCS(=O)(=O)C1 (stereo not drawn)	-2.8%
CC(=O)N/N=C/c1cc(C)n(-c2ccc(Br)cc2)c1C	-5.8%
CCCCNC(=S)N/N=C1\CCCCc2ccccc21	-15.5%
COC(=O)CCCC1=CC2=C(c3ccccc3)C(=O)C(C)(OC(=O)C3CCCC3)C(=O)C2=CN1C(CO)CO (stereo not drawn)	-11.3%
Cc1csc(NC(=O)CCNS(=O)(=O)c2ccc3c(c2)c(=O)n(C)c(=O)n3C)n1	-19.2%
CCOC(=O)c1sc(C)c2c1NC(c1ccc(Cl)cc1)NC2=O (stereo not drawn)	u
COc1ccc(C2CC(c3cccs3)=NN2C(=O)COC(=O)c2cc3ccccc3cc2O)cc1OC (stereo not drawn)	-16.8%
COc1ccc2cc(C3(C)NC(=O)N(CC(=O)Nc4c(C)n(C)n(-c5ccccc5)c4=O)C3=O)ccc2c1 (stereo not drawn)	-0.9%
COc1ccc(N2C(=O)CC(NCc3cccs3)C2=O)cc1 (stereo not drawn)	-1.7%
CCc1cccc2c(C(=O)CSc3nncn3-c3ccccc3OC)c[nH]c12	-16.5%
CN(CCCNC(=O)c1cccc(N2CCCC2=O)c1)c1ccccc1	-10.3%
Cc1ccc(-c2nn(-c3ccccc3)cc2CN(Cc2ccccc2)C(=O)c2ccco2)o1	-26.6%
O=C(CSc1nc2ccccc2s1)NNC(=S)Nc1ccc(Cl)cc1	-27.7%
CNc1oc(C)nc1S(=O)(=O)c1ccccc1	2.2%
COc1cc(-c2nnc3sc(Cc4ccccc4)nn23)cc(OC)c1OC	u
N#C/C(=C\c1ccc(-c2ccccc2)o1)C(=O)Nn1cnnc1	15.8µM*
Cc1nc2c(C)cccn2c1/C(O)=C1\C(=O)C(=O)N(CCN2CCOCC2)C1c1cccs1 (stereo not drawn)	-8.0%
COc1ccc(NC(=O)C(NC(C)=O)C(=O)NCc2ccc(F)cc2)cc1 (stereo not drawn)	-6.2%
CC(C)N=C(NC#N)SCc1ccccc1F	-1.6%
CC(=O)CSc1nc(C(F)(F)F)cc(=O)n1-c1ccccc1	-7.0%
CCc1ccc(NC(=S)N2CCN(c3cccc(C(F)(F)F)c3)CC2)cc1	-9.7%
O=C(c1cc(-c2cccc(O)c2)on1)N1CCCCC1	4.47µM*
CC(C)c1cc(C(=O)N2CCN(C(c3ccccc3)c3ccccc3)CC2)no1	-19.4%

Next records.
mol	HPGD block
O=c1c2ccccc2nc2n1C(CSCc1ccc(Cl)cc1Cl)CS2 (stereo not drawn)	-24.6%
Cc1ccc(S(=O)(=O)N(C)Cc2ccc(C(=O)N/N=C/c3ccc(OC(F)F)cc3OC(F)F)cc2)cc1	-11.3%
Cc1ccc(/C=C2\C(=O)Nc3ccccc32)o1	-22.5%
O=C(Nc1ccc(Br)cc1)c1cccc(S(=O)(=O)Nc2cnc3ccccc3c2)c1	-28.8%
C=CCC1(O)CC(c2ccco2)NC(c2ccco2)C1CCC (stereo not drawn)	-5.2%
O=C(NCc1cccnc1)c1cc(Sc2ccc(F)cc2F)nc2ccccc12	-4.9%
COc1ccc(N2CC(C(=O)OCC(=O)c3cccc(OC)c3)CC2=O)cc1 (stereo not drawn)	-16.6%
CCOC(=O)c1ccc(N2CC(O)=C(c3nc4ccccc4c(=O)[nH]3)C2=N)cc1	u
CCOc1cc2c3c(c1)C1(OCCO1)C(=O)N3C(C)(C)CC2C (stereo not drawn)	-8.0%
Cc1ccnc(NC(=O)CSc2cc(=O)n(C)c3ccccc23)c1	u
CC(C)c1ccc(-c2nn(-c3ccccc3)cc2C2C(C#N)=C(N)OC3=C2C(=O)CC(C)(C)C3)cc1 (stereo not drawn)	-13.7%
CCCC(=O)NC(C)c1nc2ccccc2n1CC (stereo not drawn)	0.6%
COc1ccc(C(c2nnnn2Cc2ccc(F)cc2)N2CCN(c3ccccc3)CC2)cc1 (stereo not drawn)	-8.0%
CCOc1ccccc1NC(=O)Nc1c(C)n(-c2ccccc2)c(=O)n1C	-9.6%
COCCNC(C)C(=O)C12CC3CC(CC(C3)C1)C2 (stereo not drawn)	-5.7%
C=CCn1c(-c2ccc(S(=O)(=O)N3CCOCC3)cc2)csc1=Nc1ccccc1	-17.7%
O=C(N/N=C/c1cc(Br)c(Br)o1)C(O)c1ccccc1 (stereo not drawn)	-13.2%
S=C(NC1CCCCC1)N1CCc2ccccc2C1	-19.3%
Cc1scc(C(=O)N/N=C/c2ccco2)c1C	-26.5%
CCOC(=O)c1c(C)oc2c1c(C(c1ccccc1)N1CCOCC1)c(O)c1ccccc12 (stereo not drawn)	u

Next part.
Molecule | HPGD block
COc1ccc(Cn2c(N)c(C#N)c3nc4ccccc4nc32)cc1 | u
O=C(O)c1ccc(S(=O)(=O)c2ccc3c(c2)C(=O)N(CC2CCCO2)C3=O)cc1 (stereo not drawn) | -8.9%
COc1ccc(OC)c(C2=NOC(C(=O)Nc3ccccc3SC)C2)c1 (stereo not drawn) | -17.6%
CC(C)CN1CCC2(CC1)CCN(C(=O)c1cccc(F)c1)CC2 | -23.0%
COc1ccc(CNc2nc(NCc3ccc(OC)cc3)n(C(=O)c3ccccc3[N+](=O)[O-])n2)cc1 | -21.5%
CC(C)NC(=O)N1CCCC2(CCN(C(=O)c3csnn3)CC2)C1 | -2.4%
Cc1ccc(NCc2nnc(SCC(=O)N3CCc4ccccc43)n2C)cc1 | 0.3%
Cc1ccc2c(c1)cc1c(=O)[nH]ncn12 | -19.9%
CCOc1ccc(NC2=NC(C(=O)NCc3ccccc3)CC(=O)N2)cc1 (stereo not drawn) | -4.4%
Cc1ccsc1C(=O)N/N=C/c1ccc([N+](=O)[O-])cc1 | -12.4%
Cc1ccc(C)c(S(=O)(=O)N2CCCOC2CNC(=O)C(=O)NCCCn2ccnc2)c1 (stereo not drawn) | -4.1%
Cc1cccc(NS(=O)(=O)c2c(C)n[nH]c2C)c1 | -5.5%
CCCCS(=O)(=O)/C=C/[C@H]1[C@H](S(=O)(=O)CCCC)[C@H]2C=C[C@@H]1C2 | -13.0%
Cc1cc(C(=O)CCC(=O)N2CCN(S(=O)(=O)c3cccs3)CC2)c(C)s1 | -7.0%
CCC(CC)C(=O)Nc1c2c(nn1-c1ccc(OC)cc1)CS(=O)C2 (stereo not drawn) | 1.4%
Cc1ccc(NC(=O)CCCSc2nc3ccccc3[nH]2)cc1 | -6.9%
CCn1c(=O)cc(SCC(=O)NCCCN2CCN(c3ccc(F)cc3)CC2)c2ccccc21 | -6.5%
Cc1ccc(SC(C)C(=O)N2CCCC2)cc1 (stereo not drawn) | u
COC(=O)CSc1cc(C)nc(SC)n1 | -3.2%
CCCOP(=O)(c1ccc(N(C)C)cc1)C(O)c1cc(OC)c(OC)c(OC)c1 (stereo not drawn) | -10.9%
Cc1cc([N+](=O)[O-])ccc1NC1CCCC1 | -16.1%
CCC(C)(C)n1nnnc1C(c1ccc(C)cc1)N1CCN(Cc2ccc3c(c2)OCO3)CC1 (stereo not drawn) | 4.8%
CCC(=O)NC(=Nc1nc2ccccc2s1)NC(=O)CC | u
COc1ccc(N/C=C\C(=O)c2ccc(Br)cc2)cc1OC | 1.6%
CCOc1cc(NC(=S)NCCCN2CCOCC2)c(OCC)cc1NC(=O)CC(C)C | -3.6%
CC(=O)c1cn(C)c(=O)n(C)c1=O | -9.1%
Cn1c(C(=O)OCC(=O)NCc2cccs2)cc2sccc21 | -20.6%
c1ccc(-c2nc(-c3ccccc3)c(NC3CCCCC3)o2)cc1 | -0.9%
Cc1ccc2nc(NC(=O)C3CCN(S(=O)(=O)c4cc([N+](=O)[O-])ccc4Cl)CC3)sc2c1 | -16.1%
Cc1cc2c(cc(C(=O)O)n2C)s1 | 0.5%
CCOc1cc(CNc2ccc3c(c2)OCCO3)cc(Br)c1OCC(N)=O | -5.4%
Cc1ccc(OC(=O)c2ccc(Br)o2)cc1 | -14.9%
Cc1ccc2c(c1)cc(CN(Cc1cccnc1)C(=O)NCc1ccccc1)c1nnnn12 | -6.0%
O=C1O/C(=C\C(=O)N2CCOCC2)c2ccccc21 | -5.3%
CCCCC1(Cc2ccc([N+](=O)[O-])cc2)C(=O)N(c2ccccc2)N(c2ccccc2)C1=O | 1.6%
COc1cc(C2C(C#N)=C(N)Oc3cc(C)n(Cc4ccccn4)c(=O)c32)cc2c1OCO2 (stereo not drawn) | -24.8%
NCCCNCCCCNCCCNC(=O)CCc1ccc(O)cc1 | -12.4%
Cc1ccc(C(=O)[C@@H]2[C@H]3C4COC(O4)C(=O)[C@@H]3[C@H]3C=Cc4ccccc4N32)cc1 (stereo partly drawn) | -17.5%
CCCC(c1nnnn1CCOC)N1CCN(C(=O)c2ccco2)CC1 (stereo not drawn) | -3.0%
Nc1nnc(SCc2ccc(F)cc2Cl)s1 | -11.8%
Cc1ccc(C(CC(=O)N2CCOCC2)c2ccco2)cc1 (stereo not drawn) | 20µM*

Only part of the results is shown; rates above refer to the full screens.
